High-throughput results (PubChem BioAssay)
Vaccinia stage: Vaccinia orthopox stage-specific inhibition; Vaccinia-infected cells, mCherry/Venus stage reporter fluorescence; hits give low values; some inactives read as strong as hits; activity change (mCherry), % (no concentration beside the values); 89,000 tested, 0.01% active; AID 1053133;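 active = mCherry past -33% and 40 or more points under the early reporter, replicates agreeing; inconclusive = past -33% without that gap or agreement; tested in A549 cells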;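 note: scaled between vehicle wells and reference inhibitor wells; 23 nL library stock went into each well; one replicate is shown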
Vaccinia stage Venus: second read-out of Vaccinia stage, no call of its own (marks repeat the call); activity change (Venus), %; measured here: Venus reporter, other viral stage;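 negative = less Venus signal; first of two replicates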
Active calls of the source: *; u = inconclusive; x = no result given; & = joins results of further samples. The list is partial; the hit share may differ from the screen's.

| structure | Vaccinia stage | Vaccinia stage Venus |
| --- | --- | --- |
| C[C@H](CO)N1C[C@H](C)[C@H](CN(C)Cc2ccc(-c3ccccc3)cc2)Oc2ccc(NC(=O)Nc3ccc(C(F)(F)F)cc3)cc2C1=O | -22 | -14 |
| C[C@@H]1CN([C@H](C)CO)S(=O)(=O)c2ccc(C3=CCCC3)cc2O[C@H]1CN(C)C(=O)C1CCCCC1 | -34 | -25 |
| CCCC#Cc1ccc([C@H]2[C@@H](C#N)N(C(=O)C3CC3)[C@@H]2CO)cc1 | -2 | 4 |
| C[C@H]1CN([C@@H](C)CO)C(=O)c2cccc(NS(C)(=O)=O)c2O[C@H]1CN(C)Cc1ccc(C(=O)O)cc1 | 6 | 6 |
| COc1cccc(-c2ccc([C@H]3[C@@H](CO)N4CCCCN(CC5CC5)C[C@@H]34)cc2)c1 | -27 | -10 |
| Cc1noc(C)c1S(=O)(=O)Nc1ccc2c(c1)C(=O)N([C@@H](C)CO)C[C@H](C)[C@H](CN(C)C(=O)NC1CCCCC1)OCCCC[C@@H](C)O2 | -7 | -2 |
| CCNC(=O)C[C@@H]1CC[C@H]2[C@@H](COc3ccc(NS(=O)(=O)c4ccccc4C)cc3C(=O)N2C)O1 | 15 | 8 |
| CN1C(=O)c2cc(NC(=O)c3ccccc3)ccc2OC[C@H]2O[C@H](CC(=O)O)CC[C@H]21 | 13 | 10 |
| C[C@H]1CN([C@@H](C)CO)S(=O)(=O)c2ccc(C#Cc3ccccc3)cc2O[C@H]1CN(C)CC1CC1 | -7 | -14 |
| N#C[C@@H]1[C@@H](c2ccccc2C2=CCCCC2)[C@@H](CO)N1C(=O)C1CCOCC1 | 8 | 1 |
| C[C@H](CO)N1C[C@H](C)[C@@H](CN(C)S(=O)(=O)c2ccc(Cl)cc2)Oc2c(NC(=O)NC3CCCCC3)cccc2C1=O | -22 | -16 |
| N#C[C@@H]1[C@H](c2ccccc2-c2ccc(F)cc2)[C@H](CO)N1C(=O)Cc1cccnc1 | 0 | -2 |
| CCC(=O)N1CC2(CCN(Cc3cncnc3)CC2)c2c([nH]c3cc(OC)ccc23)[C@@H]1CO | -8 | -12 |
| COc1cccc(CN2C[C@@H](C)[C@H](OC)CN(C)C(=O)c3cc(NS(=O)(=O)c4cn(C)cn4)ccc3OC[C@H]2C)c1 | 8 | 4 |
| COc1ccccc1CNC(=O)C[C@H]1C[C@H]2c3cc(NS(=O)(=O)c4ccc(F)cc4)ccc3O[C@H]2[C@H](CO)O1 | u | x |
| COc1ccc(NC(=O)Nc2cccc3c2O[C@@H](CN(C)C(=O)Nc2ccc4c(c2)OCO4)[C@H](C)CN([C@@H](C)CO)C3=O)cc1 | 31 | 1 |
| CO[C@H]1CN(C)C(=O)c2ccc(NC(C)=O)cc2OC[C@@H](C)N(C(=O)c2ccncc2)C[C@H]1C | 1 | 5 |
| COc1cccc(-c2ccc([C@H]3[C@@H](CO)N4CCCCN(S(=O)(=O)c5cccs5)C[C@H]34)cc2)c1 | -18 | -7 |
| CO[C@H]1CN(C)C(=O)c2cc(NC(=O)c3ccc(F)cc3)ccc2OC[C@@H](C)N(C(C)=O)C[C@@H]1C | 19 | 9 |
| CCS(=O)(=O)Nc1ccc2c(c1)C(=O)N(C)[C@@H]1CC[C@H](CC(=O)NCCOC)O[C@H]1CO2 | 5 | 11 |
| O=C(C[C@H]1CC[C@H](NS(=O)(=O)c2ccc(F)cc2)[C@@H](CO)O1)N1CCc2ccccc2C1 | -5 | 11 |
| C[C@H]1CN([C@@H](C)CO)C(=O)c2cc(C#CCN(C)C)cnc2O[C@@H]1CN(C)Cc1cccc(F)c1 | 2 | -3 |
| C[C@H]1CN([C@@H](C)CO)C(=O)c2cccc(NC(=O)Nc3ccc4c(c3)OCO4)c2O[C@H]1CN(C)Cc1ccc(C(=O)Nc2ccccc2N)cc1 | 0 | -2 |
| CN1C(=O)c2cc(NC(=O)c3cccc(F)c3)ccc2OC[C@H]2O[C@@H](CC(=O)NC3CCC3)CC[C@@H]21 | 11 | 11 |
| COc1ccc2c3c(n(C)c2c1)[C@@H](CO)N(C(=O)Nc1ccc(F)cc1)CC31CN(C(=O)Nc2c(C)noc2C)C1 | -1 | -10 |
| C[C@@H]1CCCCO[C@@H](CN(C)Cc2ccc(C(F)(F)F)cc2)[C@H](C)CN([C@@H](C)CO)C(=O)c2cc(NC(=O)c3ccncc3)ccc2O1 | u | x |
| CCCN(C)C[C@H]1Oc2ncc(C#CC3CCCCC3)cc2C(=O)N([C@H](C)CO)C[C@H]1C | -33 | -30 |
| O=C(N[C@H]1CC[C@@H](CCn2cc(-c3ccc(F)cc3)nn2)O[C@H]1CO)c1cnccn1 | 13 | 12 |
| COCC(=O)Nc1ccc2c(c1)[C@@H]1C[C@H](CC(=O)NC3CCCC3)O[C@H](CO)[C@@H]1O2 | 8 | 9 |
| O=C(C[C@H]1C=C[C@H](NC(=O)Nc2cc(F)ccc2F)[C@@H](CO)O1)NCc1ccccn1 | 4 | 6 |

Part of the list above, reformatted.
structure: COc1cccc(-c2ccc([C@H]3[C@@H](CO)N4CCCCN(S(=O)(=O)c5cccs5)C[C@H]34)cc2)c1
  Vaccinia stage = -18; Vaccinia stage Venus = -7
structure: C[C@@H]1CCCCO[C@@H](CN(C)Cc2ccc(C(F)(F)F)cc2)[C@H](C)CN([C@@H](C)CO)C(=O)c2cc(NC(=O)c3ccncc3)ccc2O1
  Vaccinia stage = u; Vaccinia stage Venus = x
structure: CCNC(=O)C[C@@H]1CC[C@H]2[C@@H](COc3ccc(NS(=O)(=O)c4ccccc4C)cc3C(=O)N2C)O1
  Vaccinia stage = 15; Vaccinia stage Venus = 8

Returning to the listing; the 2 compounds before the break are reprinted first.
| structure | Vaccinia stage | Vaccinia stage Venus |
| --- | --- | --- |
| COCC(=O)Nc1ccc2c(c1)[C@@H]1C[C@H](CC(=O)NC3CCCC3)O[C@H](CO)[C@@H]1O2 | 8 | 9 |
| O=C(C[C@H]1C=C[C@H](NC(=O)Nc2cc(F)ccc2F)[C@@H](CO)O1)NCc1ccccn1 | 4 | 6 |
| C[C@@H]1CN([C@@H](C)CO)C(=O)c2cc(NC(=O)Nc3ccc(C(F)(F)F)cc3)ccc2O[C@@H](C)CCCCO[C@@H]1CN(C)C(=O)Nc1cccc2ccccc12 | 15 | 6 |
| O=C(C[C@@H]1C=C[C@@H](NS(=O)(=O)c2ccc(F)cc2)[C@@H](CO)O1)NC1CCC1 | 13 | 15 |
| O=C(C[C@@H]1CC[C@H]2[C@@H](COC[C@@H](O)CN2C(=O)c2cnccn2)O1)NCc1ccc(F)cc1 | 6 | 11 |
| COc1ccc(S(=O)(=O)Nc2ccc3c(c2)CC(=O)N([C@H](C)CO)C[C@@H](C)[C@@H](CN(C)S(C)(=O)=O)O3)cc1 | 7 | 6 |
| O=C(CN1CCOCC1)NCC[C@@H]1CC[C@H](NC(=O)Nc2ccc(C(F)(F)F)cc2)[C@@H](CO)O1 | 2 | 4 |
| O=C(C[C@H]1CC[C@@H]2[C@H](COC[C@H](O)CN2C(=O)Nc2ccc(Cl)cc2)O1)NCC1CC1 | 1 | 8 |
| C[C@H]1CN([C@@H](C)CO)C(=O)c2cc(NS(=O)(=O)c3cn(C)cn3)ccc2O[C@@H]1CN(C)C(=O)Nc1cccc2ccccc12 | 26 | 8 |
| C[C@@H]1CN([C@H](C)CO)C(=O)Cc2cc(NS(=O)(=O)c3ccc(F)cc3)ccc2O[C@H]1CN(C)C(=O)Nc1ccc(F)cc1 | 20 | 12 |
| CCCC#Cc1ccc([C@H]2[C@H](CO)N3C(=O)CN(C(=O)c4ccc(F)cc4)C[C@@H]23)cc1 | 6 | -10 |
| Cc1ccc(S(=O)(=O)N(C)C[C@@H]2OCc3cnnn3CCCC(=O)N([C@@H](C)CO)C[C@@H]2C)cc1 | -2 | 1 |
| CO[C@H]1CN(C)C(=O)c2cc(NC(=O)C3CC3)ccc2OC[C@@H](C)N(CC2CCCC2)C[C@H]1C | -4 | 6 |
| CC(C)NC(=O)Nc1cccc2c1O[C@@H](CN(C)C)[C@@H](C)CN([C@@H](C)CO)C2=O | 4 | -3 |
| C[C@@H]1CN([C@H](C)CO)C(=O)Cc2cc(NC(=O)Nc3cccc4ccccc34)ccc2O[C@H]1CN(C)Cc1ccc(C(=O)O)cc1 | 5 | 0 |
| O=C(Cc1ccccc1)N1CC(=O)N2[C@H](CO)[C@@H](c3ccc(C#CCc4ccccc4)cc3)[C@@H]2C1 | -3 | -13 |
| CO[C@H]1CN(C)C(=O)c2cc(NC(=O)C3CC3)ccc2OC[C@@H](C)N(Cc2nccs2)C[C@@H]1C | 12 | 11 |
| COc1ccc(NC(=O)Nc2ccc3c(c2)C(=O)N([C@H](C)CO)C[C@@H](C)[C@@H](CN(C)S(=O)(=O)c2ccc(OC)cc2)O3)cc1 | -14 | -2 |
| CCCNC(=O)[C@@H]1[C@@H](CO)[C@@H]2Cn3c(ccc(C4=CCCC4)c3=O)[C@H]1N2 | 18 | 8 |
| C[C@H]1CN([C@@H](C)CO)C(=O)Cc2cc(NC(=O)c3ccncc3)ccc2O[C@@H]1CN(C)C(=O)Nc1ccc(C(F)(F)F)cc1 | 13 | 8 |
| COc1ccc2c3c(n(C)c2c1)[C@H](CO)NCC31CCN(Cc2cc(-c3ccccc3)on2)CC1 | u | x |
| COc1ccc(NC(=O)N(C)C[C@@H]2Oc3ccc(NC(=O)Nc4ccccc4)cc3C(=O)N([C@H](C)CO)C[C@@H]2C)cc1 | 6 | 15 |
| CN(C)C(=O)C[C@H]1CC[C@@H]2[C@@H](COc3ccc(NC(=O)NCc4ccccc4)cc3C(=O)N2C)O1 | 5 | 0 |
| O=C(C[C@@H]1CC[C@H]2[C@@H](COC[C@@H](O)CN2C(=O)c2cccnc2)O1)NCc1ccc(Cl)cc1 | 22 | 17 |
| C[C@@H]1CN([C@@H](C)CO)C(=O)c2cc(-c3cccc(C#N)c3)cnc2O[C@@H]1CN(C)C(=O)C1CC1 | 40 | 16 |
| CN(C)C(=O)C[C@H]1C=C[C@H](NC(=O)C2CC2)[C@@H](CO)O1 | 8 | 4 |
| C/C=C/c1ccc2c(c1)O[C@H](CN(C)C(=O)Nc1cc(F)ccc1F)[C@H](C)CN([C@H](C)CO)S2(=O)=O | -29 | -19 |
| O=C(C[C@@H]1CC[C@H]2[C@@H](COC[C@H](O)CN2Cc2ccc(Oc3ccccc3)cc2)O1)N1CCCCC1 | u | x |
| COc1ccc(NC(=O)N(C)C[C@H]2Oc3c(NC(=O)Nc4c(C)noc4C)cccc3C(=O)N([C@H](C)CO)C[C@H]2C)cc1 | 9 | 9 |
| Cn1cnc(S(=O)(=O)N2C[C@@H](O)COC[C@H]3O[C@@H](CC(=O)NC4CCCC4)CC[C@@H]32)c1 | 6 | 2 |
| C[C@@H]1CN([C@H](C)CO)C(=O)c2cc(-c3ccc(F)cc3)cnc2O[C@H]1CN(C)C(=O)c1ccc(F)cc1 | -6&-20 | -5&0 |
| C[C@@H]1CN([C@@H](C)CO)C(=O)Cc2cc(NC(=O)Nc3cccc4ccccc34)ccc2O[C@H]1CN(C)S(C)(=O)=O | 15 | 13 |

The list continues:
smiles | Vaccinia stage | Vaccinia stage Venus
N#Cc1ccc(-c2ccc(C3[C@H]4CNC[C@@H]3N4C(=O)NC3CCCC3)cc2)cc1 (stereo partly drawn) | 8 | 10
N#C[C@H]1[C@@H](c2ccc(-c3ccncc3)cc2)[C@@H](CO)N1C(=O)Cc1ccccc1 | -14 | -10
CN1C(=O)c2cc(NC(=O)c3ccc(F)cc3)ccc2OC[C@H]2O[C@H](CC(=O)NC3CCC3)CC[C@H]21 | -1 | -3
C/C=C/c1cnc2c(c1)C(=O)N([C@@H](C)CO)C[C@@H](C)[C@H](CN(C)Cc1ccncc1)O2 | 12 | -1
CN(C)C(=O)c1cccc(-c2ccc([C@H]3[C@H]4CN(C(=O)C5CCC5)CC(=O)N4[C@H]3CO)cc2)c1 | 8 | 2
O=C(Cc1cccnc1)N[C@@H]1CC[C@H](CCn2cc(-c3ccccc3F)nn2)O[C@@H]1CO | -1 | 9
O=C(Cc1ccccc1)N1C[C@@H]2[C@H](c3ccccc31)[C@H](CO)N2C(=O)c1cccc(F)c1 | -1 | -2
COc1ccc(S(=O)(=O)N(C)C[C@@H]2OCCCC[C@H](C)Oc3ccc(NC(=O)C4CCCCC4)cc3C(=O)N([C@H](C)CO)C[C@@H]2C)cc1 | u | x
C[C@H](NC(=O)N(C)C[C@@H]1OCc2ccccc2-c2ccccc2C(=O)N([C@@H](C)CO)C[C@H]1C)c1ccccc1 | 9 | 3
C[C@H](CO)N1C[C@H](C)[C@@H](CN(C)Cc2ccc3c(c2)OCO3)Oc2ccc(NS(C)(=O)=O)cc2CC1=O | -5 | -5
COc1ccc(NC(=O)Nc2ccc3c(c2)C(=O)N([C@@H](C)CO)C[C@H](C)[C@@H](CN(C)S(C)(=O)=O)O3)cc1 | 11 | 10
CO[C@H]1CN(C)C(=O)c2cc(NC(C)=O)ccc2OC[C@@H](C)N(Cc2ccccc2C(=O)O)C[C@@H]1C | 8 | 4
CC(C)CC#Cc1cnc2c(c1)C(=O)N([C@@H](C)CO)C[C@@H](C)[C@H](CN(C)Cc1cncnc1)O2 | -3 | -1
COCC(=O)N1[C@H](CO)[C@@H](c2ccc(-c3cccc(OC)c3)cc2)C12CN(C(C)=O)C2 | -2 | 6
COCC(=O)Nc1ccc2c(c1)C(=O)N(C)C[C@@H](OC)[C@@H](C)CN(C(=O)c1cnccn1)[C@H](C)CO2 | 4 | 9
CN1CCN(C(=O)C[C@H]2CC[C@H]3[C@@H](COC[C@@H](O)CN3C(=O)Nc3ccc4c(c3)OCO4)O2)CC1 | 10 | 11
O=C(Nc1cccc(Cl)c1)N[C@H]1CC[C@@H](CCNC(=O)C2CCCC2)O[C@@H]1CO | -16 | -4
COc1ccc2c3c([nH]c2c1)[C@H](CO)N(C)CC31CCN(C(=O)c2ccccc2F)CC1 | 10 | 9
Cc1cccc(S(=O)(=O)N[C@H]2CC[C@H](CCNC(=O)CCN3CCCCC3)O[C@@H]2CO)c1 | 9 | 0
CCCNC(=O)N(C)C[C@H]1Oc2ncc(/C=C/c3ccccc3)cc2C(=O)N([C@H](C)CO)C[C@@H]1C | -6 | -3
